FGF22 binding: binders of recombinant human FGF22 by thermal shift | 340,000 tested, 1.5% active | calls only at 9.99 µM | SYPRO orange fluorescence; percent of sucrose octasulfate shift, DMSO zero | Q9HCT0;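 active means melting point raised past a set limit in the mean and every replicate; inconclusive means no clear call; three in four hits are not shown here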
Target sequence (Q9HCT0 whole entry, looked up): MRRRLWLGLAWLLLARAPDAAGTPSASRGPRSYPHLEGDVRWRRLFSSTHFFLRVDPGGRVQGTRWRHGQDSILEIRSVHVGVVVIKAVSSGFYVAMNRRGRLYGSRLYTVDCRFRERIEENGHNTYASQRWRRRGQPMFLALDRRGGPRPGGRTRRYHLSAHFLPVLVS
T cruzi repl: blocks replication of Trypanosoma cruzi | T. cruzi beta-gal in NIH3T3, luminescence, 90 h | inhibition, % (test concentration not listed) | 300,000 tested, 1.4% active;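 active means mean inhibition across valid replicates above about 55%, limit read from the data; inconclusive means mean below that limit but half or more replicates reach it; inactive means mean below it, under half of replicates reach it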;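 further: signal also drops with host cell toxicity which is not excluded here; 0% = plate median of DMSO wells and 100% = zero luminescence signal; higher percent means less beta-gal luminescence so fewer parasites; stock transfer was 50 nL into about 50 µL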
rRNA inh HTS: selective bacterial rRNA inhibition in E. coli; E. coli WT GFP vs humanized-ribosome RFP mutants, fluorescence, 24 h; active compounds read low; DMSO median 0, no signal -100; GFP signal change (wild-type ribosome), % (test concentration not listed); 350,000 tested, 1.6% active;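 active means significant combined selectivity score with lowered wild-type GFP, culture density cut under 30%, mutant RFP and density less affected; inactive means any of these conditions unmet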; further: one replicate is shown; some compounds called inactive have numbers as strong as hits
UCH37 DUB inh: blocks the human deubiquitinase UCH37; Q9Y5K5; inhibition, % (test concentration not listed); purified proteasome/UCH37, Ub-AMC cleavage fluorescence; 330,000 tested, 0.33% active; AID 588478;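 active means mean of two replicates above 20%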;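 further: 0% = compound-free wells with enzyme and 100% = wells lacking proteasome; stock transfer was 100 nL into about 20 µL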
Target sequence (Q9Y5K5 whole entry, looked up): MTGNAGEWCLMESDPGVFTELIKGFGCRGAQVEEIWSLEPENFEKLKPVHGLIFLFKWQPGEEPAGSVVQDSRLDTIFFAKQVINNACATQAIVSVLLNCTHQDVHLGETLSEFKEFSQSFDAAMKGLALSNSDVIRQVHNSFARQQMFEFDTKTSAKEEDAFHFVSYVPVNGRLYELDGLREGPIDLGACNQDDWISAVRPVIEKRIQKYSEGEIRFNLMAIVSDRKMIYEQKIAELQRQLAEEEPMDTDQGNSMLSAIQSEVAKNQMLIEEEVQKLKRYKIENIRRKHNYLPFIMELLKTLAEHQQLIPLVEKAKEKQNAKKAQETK
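Test system – human UCH37 enzyme supplied as purified proteasome complex · Incubation – 30 min preincubation with enzyme, 25 min cleavage at room temperature · Detection – AMC fluorescence from Ub-AMC cleavage, excitation 355 nm, emission 460 nm · Benchmarks – no-proteasome wells (full inhibition) and compound-free wells (no inhibition)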
MLL AF4-AF9 inh: MLL-AF4/AF9 protein interaction inhibition | 350,000 tested, 0.47% active | AlphaScreen, biotin-AF4 peptide binding to FLAG-AF9 | AID 651704 | inhibition, % at 10 µM | P42568;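 active means every replicate reaching a set inhibition limit, whatever the replicate mean, cut at about 25% in these data; inconclusive means mean inhibition reaches that limit but some replicates miss it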;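 further: 0% = plate neutral control median and 100% = total signal loss; the record names both 10 and 1 µM as test concentration; the first replicate is given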
Target sequence (P42568 whole entry, looked up): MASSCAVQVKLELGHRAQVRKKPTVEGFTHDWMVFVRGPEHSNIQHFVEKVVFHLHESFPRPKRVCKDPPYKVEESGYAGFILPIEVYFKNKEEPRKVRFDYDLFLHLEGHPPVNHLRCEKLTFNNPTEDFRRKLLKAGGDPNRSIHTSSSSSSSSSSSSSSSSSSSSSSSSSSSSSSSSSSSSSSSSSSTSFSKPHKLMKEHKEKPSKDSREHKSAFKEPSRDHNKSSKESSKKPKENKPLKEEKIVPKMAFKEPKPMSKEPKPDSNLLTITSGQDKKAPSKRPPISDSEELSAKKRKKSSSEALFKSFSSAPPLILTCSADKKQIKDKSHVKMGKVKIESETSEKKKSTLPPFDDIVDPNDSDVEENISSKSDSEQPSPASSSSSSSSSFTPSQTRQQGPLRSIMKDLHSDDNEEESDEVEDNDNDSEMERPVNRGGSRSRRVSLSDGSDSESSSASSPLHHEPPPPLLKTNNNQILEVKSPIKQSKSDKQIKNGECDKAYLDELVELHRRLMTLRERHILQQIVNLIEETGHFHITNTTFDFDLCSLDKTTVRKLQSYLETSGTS
Beta apoptosis: beta cell apoptosis inhibition. INS-1E cytokine-induced death, ATP luminescence, 48 h; percent of positive-control rescue, neutral wells zero. 300,000 tested, 0.8% active. AID 435005. protection from apoptosis, % (no concentration beside the values);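 active means all replicates at 75% or more, or half of them and the mean; inconclusive means half reach 75% but not the mean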;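 further: 0% = cytokine-treated negative control wells and 100% = positive control rescue; higher means more ATP so stronger rescue from cytokine killing; wells of about 40 µL received 100 nL stock; the first replicate is given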
Ecoli growth: blocks Escherichia coli growth; OD600, 23 h; active compounds read low; OD600 absorbance (test concentration not listed); 330,000 tested, 0.21% active;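 active means OD600 absorbance below the run mean of sample wells minus 3.6 SD, in any replicate, cut at about 0.56 in these data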;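 further: stock transfer was 300 nL into about 60 µL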
Bfl-1 A1 inh: inhibitors of the anti-apoptotic protein A1, read as caspase activation. caspase activation, % (concentration not given with the values). 330,000 tested, 0.066% active. MEF A1-2A-BIM cells, Caspase-Glo 3/7 luminescence, 3 h; percent of clofoctol response, vehicle zero;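 active means over half of replicate activation scores above 10%, or exactly half above 10 with the replicate mean above 10; inconclusive means replicate mean below 10 yet half the replicates above 10; inactive means over half of replicates below 10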;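 further: wells of about 30 µL received 50 nL stock; many hits fall short of the cut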
rRNA inh HTS OD600: recorded beside rRNA inh HTS, whose call it bears; OD600 change, %; measured here: OD600 growth;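 optical density of the mix in the first replicate; 0 = DMSO median and -100 = no signal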
rRNA inh HTS RFP: also measured in rRNA inh HTS; calls as there; RFP signal change, %; measured here: RFP humanized mutant strains;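 first replicate; 0 = DMSO median and -100 = no signal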
Starred values were filed as active, the others as inactive; i = inactive; ? = inconclusive; . = no result given. The list is partial (hit frequency here may not be typical).

SMILES	FGF22 binding	T cruzi repl	rRNA inh HTS	rRNA inh HTS OD600	rRNA inh HTS RFP	UCH37 DUB inh	MLL AF4-AF9 inh	Beta apoptosis	Ecoli growth	Bfl-1 A1 inh
Cc1cc(-c2ccccc2)n(-c2ccccc2)n1	i	3	8	8	-1.8	1.5	-5.1	1	0.71	0.1
CC1CC(Nc2cccc(O)c2)=CC(=O)O1 (centres undefined)	.	-3	.	.	.	5.3	.	2	0.75	1.6
CC(=O)Nc1ccc(NC(=O)CSc2nnc(NC(=O)c3cccc(F)c3)s2)cc1	i	-8	6	-19	3.4	4.3	0.7	1	0.7	-5.8
Cc1ccc(CCN2CCN=C2N(C)C)cc1	i	-7	-1	5	5.1	1.1	2.1	-2	0.69	0.5
Cc1ccc(CN2CCN(C3CCOCC3)CC2CCO)cc1 (centres undefined)	.	5	14	5	0.2	1.6	0.1	-4	0.69	-0.2
C=CCn1cccc(C(=O)Nc2ccc(N(C)C)cc2)c1=O	i	1	2	-2	0.5	8.5	6.9	3	0.67	-2.9
CCOc1ccc(S(=O)(=O)Nc2cc(OC)ccc2OC)cc1	.	-20	.	.	.	5.4	.	44	0.66	1.3
CCOC(=O)C1(Cc2cccc(OC)c2)CCN(Cc2ccon2)CC1	i	10	-3	1	-0.1	1.3	-31	2	0.72	-0.7
Cc1c(-n2cc(C(=O)c3cc(Cl)ccc3O)cc(C#N)c2=O)c(=O)n(-c2ccccc2)n1C	i	-3	18	0	-3.8	4.5	7.6	-7	0.74	-0.5
S=C(NC1CC1)NC1CCCc2ccccc21 (centres undefined)	i	-21	14	10	-3.8	4.0	-0.1	-8	0.67	1.5
CC(=O)N1CCN(C(=O)c2ccc(Cl)c(S(=O)(=O)N3CCCC3)c2)CC1	i	.	4	14	-1.2	1.5	-1.1	-9	0.63	0.2
Cc1nn(-c2ccccn2)c2nc(-c3cccs3)cc(C(=O)NCc3ccco3)c12	.	10	.	.	.	-123	.	4	0.72	-0.2
O=C(NCC(=O)N1CCN(c2ncccn2)CC1)c1ccccc1F	i	.	8	11	-1.8	0.1	-0.6	0	0.7	-0.1
Cc1cc(Cl)ccc1OCC(=O)NNC(=O)C1CSC2(C)CCC(=O)N12 (centres undefined)	i	-5	-3	-9	-0.8	1.1	-2.8	-1	0.64	-0.2
COc1ccc(Cc2nnc(N/N=C/c3ccc(O)cc3O)[nH]c2=O)cc1OC	i	-14	-43	-60	-18	.	2.2	36	.	0.1
CC(C)Oc1ccc(OCCNC2CCCC2)cc1	.	8	.	.	.	1.0	.	3	0.65	0.2
COc1cc(C(=O)Nc2ccc(S(=O)(=O)N3CCOCC3)cc2)c([N+](=O)[O-])cc1OC	i	-6	1	5	1.4	4.2	1.9	1	0.68	0.8
COc1ccccc1N1CCN(S(=O)(=O)c2ccc3c(c2)CC(C)N3C(C)=O)CC1 (centres undefined)	i	10	-15	-24	0.6	0.0	2.9	5	0.72	0.1
c1ccc(-c2nnsc2Sc2ccccn2)cc1	i	-3	-51	-74	-14	7.0	1.9	7	0.69	-0.8
CSc1ccc(S(=O)(=O)N2CCN(Cc3ccc4c(c3)OCO4)CC2)cc1	i	-6	-7	-13	0.2	-0.8	-1.7	-6	0.77	-0.5
Cn1c(SCc2ccc(Br)cc2)nnc1-c1ccccn1	i	1	-14	-1	4.3	1.4	-4.3	1	0.64	1.4
COc1ccc(N2CC(O)=C(c3nc(-c4ccc(Br)cc4)cs3)C2=N)cc1	i	-3	16	18	-2.7	-6.1	1.3	-6	0.66	-0.7
COc1ccc(-c2[nH]ncc2CN(C)Cc2nonc2C)c(OC)c1	i	-4	-4	0	-7.0	4.2	3.2	0	0.67	-0.5
COC(=O)c1sc2nc(-c3ccco3)ccc2c1N	.	-3	.	.	.	-34	.	3	0.69	-5.2
CN(/N=C/C=C/c1ccccc1)c1cc(=O)n(C)c(=O)[nH]1	i	-5	-6	3	-3.9	.	-2.3	5	.	-1.5
CCOc1ccccc1CN1C(=O)NC(C)(c2ccccc2)C1=O (centres undefined)	.	-13	.	.	.	2.4	.	-9	0.69	?
Cc1cc(C)cc(NC(=O)COC(=O)COc2cccc3c2OC(C)(C)C3)c1	i	17	0	-4	-1.1	0.2	-4.1	-5	0.68	-0.1
c1ccc(-c2nnc(NC3=NCCC3)o2)cc1	i	-5	0	0	-3.1	-0.5	-2.4	4	0.71	-6.0
Cc1cc(Cl)ccc1OC(C)C(=O)NCCCCc1ccccc1 (centres undefined)	.	8	.	.	.	0.4	.	-1	0.71	-0.2
CCCCCn1c(CCC(=O)Oc2ccccc2OC)nc2c1c(=O)[nH]c(=O)n2CCCC	.	-23	.	.	.	2.9	.	-6	0.8	-0.2
CS(=O)(=O)N1CCC(C(=O)NCc2ccc(F)cc2Cl)CC1	i	-12	7	-2	2.8	1.8	-18	-1	0.69	0.6
O=C(O)c1ccccc1NS(=O)(=O)c1cccc(N=Nc2c(O)[nH]c(=S)[nH]c2=O)c1	i	.	-9	3	-2.4	19	?	.	0.69	.
COc1cc(NC(=O)c2ccco2)c(C(=O)OCC(=O)c2c[nH]c3ccccc23)cc1OC	.	6	.	.	.	0.0	.	43	0.7	-0.3
CCN1CCN(C(=O)c2cc3cc4ccc(OC)cc4nc3s2)CC1	.	4	.	.	.	-462	.	-6	0.67	0.1
O=C(Nc1ccccc1)c1ccccc1C(=O)N1CCCCC1	i	3	10	4	-4.5	-1.0	-1.1	-3	0.68	0.7
CCCCn1nnnc1SCC(=O)N1CCN(C(=O)c2ccco2)CC1	.	-7	.	.	.	2.7	.	3	0.68	0.4
CCOc1ccc(C2OC34CCCCC3C(C#N)(C#N)C2(C#N)C(=N)O4)cc1OC (centres undefined)	.	-2	.	.	.	-126	.	1	0.68	-0.9
CC(=O)Nc1ccc(N2C(=O)CC(N3CCN(Cc4ccc5c(c4)OCO5)CC3)C2=O)cc1 (centres undefined)	.	-1	.	.	.	0.5	.	-4	0.76	0.5
CCN1CCN(CCC(=O)Nc2ccc(C)cc2)CC1	i	1	9	8	1.4	0.9	3.3	-7	0.68	-0.5
CCc1ccccc1NC(=O)NCc1cccnc1	i	-3	5	6	-0.3	1.4	-1.8	-1	0.71	-0.5
COc1ccc(N=C2SCC(c3ccccc3)=NN2C)cc1	i	17	-1	2	-4.4	5.2	8.7	.	0.69	2.3
N#CCCn1cc(C(=O)O)c(-c2cc3ccccc3o2)n1	i	-21	1	5	0.6	2.4	7.0	-2	.	-0.2
CCCCCCn1c(=O)[nH]c2c(c1=O)CCC2	i	-3	-4	-9	-0.2	4.3	-2.7	3	0.69	0.6
O=C(NCC#CCOCc1ccccc1)c1ccccc1	i	9	15	21	4.4	3.0	1.5	-3	0.7	0.5
CCC12OC(=N)C(C#N)(C1C)C(C#N)(C#N)C(c1ccccc1)O2 (centres undefined)	i	-4	12	1	8.4	-481	0.4	5	0.6	0.0
COc1ccc(/C(N)=N/OC(=O)Cc2cccs2)cc1OC	i	5	-1	-8	-4.8	2.3	0.4	0	.	0.2
Cc1ccc(NC(=S)N(CCCN2CCOCC2)Cc2ccccn2)cc1Cl	.	-32	.	.	.	5.2	.	1	0.7	1.0
Cc1c(C)n(Cc2ccc(Cl)cc2)c2ccc(C(=O)NCCCN3CCOCC3)cc12	i	13	-58	-81	-20	2.0	27*	3	0.63	0.7

Three compounds picked at random from those above:
SMILES	FGF22 binding	T cruzi repl	rRNA inh HTS	rRNA inh HTS OD600	rRNA inh HTS RFP	UCH37 DUB inh	MLL AF4-AF9 inh	Beta apoptosis	Ecoli growth	Bfl-1 A1 inh
CCc1ccccc1NC(=O)NCc1cccnc1	i	-3	5	6	-0.3	1.4	-1.8	-1	0.71	-0.5
Cc1ccc(NC(=S)N(CCCN2CCOCC2)Cc2ccccn2)cc1Cl	.	-32	.	.	.	5.2	.	1	0.7	1.0
CCN1CCN(CCC(=O)Nc2ccc(C)cc2)CC1	i	1	9	8	1.4	0.9	3.3	-7	0.68	-0.5

Other structures follow:
SMILES	FGF22 binding	T cruzi repl	rRNA inh HTS	rRNA inh HTS OD600	rRNA inh HTS RFP	UCH37 DUB inh	MLL AF4-AF9 inh	Beta apoptosis	Ecoli growth	Bfl-1 A1 inh
CC1CCN(c2ccccc2NC(=O)c2ccc(Br)o2)CC1	i	15	1	0	-0.8	0.0	3.6	-5	0.67	0.8
Cc1ccc(C(=O)NCc2ccc(N3CCN(C(=O)OC(C)(C)C)CC3)cc2)cc1	.	-11	.	.	.	0.3	.	-3	0.64	0.1
C=CC(C)(O)CCC=C(C)C (centres undefined)	i	.	11	12	0.0	2.2	-3.3	-3	0.72	0.9
O=C(Nc1nnc(C2CC2)s1)c1ccc(S(=O)(=O)c2ccccc2)cc1	.	-3	.	.	.	-16	.	-10	0.77	-0.3
O=c1c2ccccc2c(C=Nc2cccc(O)c2)c(O)n1-c1ccc2c(c1)OCO2	.	-7	.	.	.	3.0	.	26	0.66	-0.4
O=C(CCCl)N1c2ccccc2C=Cc2ccccc21	i	.	-21	-19	1.7	1.0	2.6	.	0.62	.
C=CCn1c(-c2oc3nc(-c4ccccc4)cc(-c4ccccc4)c3c2N)n[nH]c1=S	.	-4	.	.	.	-10	.	2	0.65	0.6
CC(Sc1nc2ccc(C(=O)c3ccccc3)cc2[nH]1)C(=O)O (centres undefined)	i	-2	13	4	-1.4	6.4	-18	0	0.63	-0.9
COC1CCN(C(=O)c2ccc(OC3CCN(Cc4ccccn4)CC3)cc2)CC1	i	-8	.	.	.	-0.4	-1.4	-6	0.68	-0.6
O=c1c([N+](=O)[O-])cc(C(F)(F)F)cn1Cc1cccc(Cl)c1	.	?	.	.	.	6.5	.	-7	0.71	-0.5
O=C1NC(=S)N/C1=C/c1ccc2ccccc2c1	i	2	-5	-7	-5.8	-7.8	3.6	-2	0.68	-0.3
CCSC1=NSC2=NC(=O)/C(=C\c3coc4ccccc4c3=O)C(=N)N12	.	.	.	.	.	-13	.	-1	0.64	-0.7
c1csc(-c2nc(NCCCN3CCOCC3)c3ccccc3n2)c1	i	7	5	2	-5.2	2.5	-2.9	3	0.62	-0.4
COC(C(=O)N1CCC(n2nccc2NC(=O)C2CC2)CC1)c1ccccc1 (centres undefined)	i	11	5	1	-2.8	-1.8	-4.8	-2	0.65	-1.6
NC(=O)c1nsc(C(=O)N(Cc2ccc(F)cc2)C(C(=O)NCC2CCCO2)c2ccc(F)cc2)c1N (centres undefined)	i	-16	3	-2	2.6	-76	-1.6	0	0.62	0.3
CN(CC(=O)Nc1cccc2ccccc12)C(=O)c1cccc(S(=O)(=O)N(C)C)c1	i	-3	2	-2	-1.6	0.2	1.8	-2	0.68	-0.3
COC(=O)CCC(=O)NNC(=O)c1ccc([N+](=O)[O-])cc1	i	-12	14	12	2.2	-0.1	-0.2	1	0.68	-0.2
CCCCNC(=O)OCCNC(=O)Oc1cccc(C)c1	.	-24	.	.	.	5.3	.	0	0.67	-0.7
